Assay outcomes as filed in PubChem.
RE007 growth inh: less growth of the S. pombe RE007 Vpr strain; S. pombe RE007 Vpr strain, BacTiter-Glo ATP luminescence, 24 h; control for the full effect not named in the record; hit rate 0.21% among 360,000; Potency, µM (titrated, usually from 92.2 µM), inactives show top-dose activity change, negative = less growth; AID 651644; active = well fitted falling curve with a large enough effect; inconclusive = small, poorly fitted or top-dose-only effect; inactive = no such curve, though single readings can be large or run the other way;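 note: % is set by controls: 0 for no effect and ±100 for the full control effect; nearly all actives have a fitted effect of over 50% in size; the assay follows cell death caused by Vpr and the record does not say whether a fall means rescue or toxicity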
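Fission yeast strain RE007, carrying one chromosomally integrated HIV-1 vpr copy, was seeded at OD 0.01 in PMG+AL medium with 23 nL pinned compound. After 24 h at 30 °C and 99% humidity, viability was read by BacTiter-Glo luminescence.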
SARS PLpro yeast: inhibitors of SARS-CoV papain-like protease in yeast; S. cerevisiae expressing SARS-CoV PLpro, growth rescue; control for the full effect not named in the record; Potency, µM (titrated, usually from 32.9 µM), inactives show at the top dose activity, positive = growth rescue; hit rate 0.19% among 330,000; AID 485353; active means well fitted rising curve with a large enough effect; inconclusive means small, poorly fitted or top-dose-only effect; inactive means no such curve, though single readings can be large or run the other way; note: 0% is about no effect; nearly all actives have a fitted effect of over 55% in size; growth read by luminescence after 48 h
2A StopGo: lowers the luciferase signal of an FMDV 2A StopGo reporter. human cells with a luciferase reporter of 2A StopGo recoding; control for the full effect not named in the record. Potency, µM (doses to about 57.9 µM), without a hit: top-dose signal change, negative = less light. hit rate 1.2% among 410,000; active = well fitted falling curve with a large enough effect; inconclusive = small, poorly fitted or top-dose-only effect; inactive = no such curve, though single readings can be large or run the other way; tested in HEK293T cells; note: % is set by controls: 0 for no effect and ±100 for the full control effect; nearly all actives have a fitted effect of over 45% in size; luciferase light after 4 h
Numbers without * were called inactive; ? = inconclusive; [ ] = dose if it differs, or a comment. Potency is the fitted concentration of half-maximal effect.

1) COc1ccc(CCNC(=O)CCC(=O)Nc2ccc3nc(N4CCN(C)CC4)cc(C)c3c2)cc1OC
2) O=C1CCC/C(=N\NC(=O)c2ccc(COc3ccccc3-c3ccccc3)cc2)C1
3) CCN(Cc1nc2ccccc2c(=O)[nH]1)C(=O)c1cc2c(s1)CCCCC2
4) CSc1ncccc1C(=O)OCC(=O)NC(C)CCc1ccccc1 (stereo not drawn)
5) CCC(C(=O)OCC(=O)NCc1ccc2c(c1)OCO2)c1ccccc1 (stereo not drawn)
6) COc1ccc(-c2cn(CCO)c(-c3ccc(Cl)nc3)n2)cc1

Screen / compound no.,1,2,3,4,5,6
RE007 growth inh,-8%,6%,7%,7%,-8%,-13%
SARS PLpro yeast,-1%,0%,2%,-1%,-5%,-5%
2A StopGo,-10%,-7%,-23%,-13%,-23%,-9%

7) COCc1c(C(=O)Nc2ccc(Cl)cc2F)oc2ccccc12
8) O=C(C[C@@H]1C/C=C/CC[C@@H](Cc2ccc(F)cc2)C(=O)OCCNC1=O)N[C@H](CO)Cc1ccccc1
9) C#CCOCCOCCOCCNc1nc(N2CCN(C(=O)[C@H](CCCCN)n3cc([C@@H](N)[C@H](C)CC)nn3)CC2)nc(N2CCN(C(=O)[C@H](CCCCN)n3cc([C@@H](N)CC(N)=O)nn3)CC2)n1
10) CC1(C)Oc2ccc3ccc(=O)oc3c2C[C@H]1O[C@@H]1O[C@H](CO)[C@@H](O)[C@H](O)[C@H]1O
11) COc1ccc(C(=O)CSc2nnc3ccc(-c4ccccn4)nn23)cc1
12) O=[N+]([O-])c1ccc(N2CCCCC2)cc1SCCO

Screen / compound no.,7,8,9,10,11,12
RE007 growth inh,3%,2%,-1%,-25%,12%,-4%
SARS PLpro yeast,-6%,4%,2%,1%,2%,1%
2A StopGo,47%[activator],0%,-15%,-23%,-13%,-10%

Five entries drawn at random from the list so far, as already listed:
8) O=C(C[C@@H]1C/C=C/CC[C@@H](Cc2ccc(F)cc2)C(=O)OCCNC1=O)N[C@H](CO)Cc1ccccc1
9) C#CCOCCOCCOCCNc1nc(N2CCN(C(=O)[C@H](CCCCN)n3cc([C@@H](N)[C@H](C)CC)nn3)CC2)nc(N2CCN(C(=O)[C@H](CCCCN)n3cc([C@@H](N)CC(N)=O)nn3)CC2)n1
12) O=[N+]([O-])c1ccc(N2CCCCC2)cc1SCCO
10) CC1(C)Oc2ccc3ccc(=O)oc3c2C[C@H]1O[C@@H]1O[C@H](CO)[C@@H](O)[C@H](O)[C@H]1O
7) COCc1c(C(=O)Nc2ccc(Cl)cc2F)oc2ccccc12

Screen / compound no.,8,9,12,10,7
RE007 growth inh,2%,-1%,-4%,-25%,3%
SARS PLpro yeast,4%,2%,1%,1%,-6%
2A StopGo,0%,-15%,-10%,-23%,47%[activator]

More compounds.
13) COc1cc(S(=O)(=O)N2CCOCC2)cc(C(=O)NCC(c2cccs2)N2CCOCC2)c1OC (stereo not drawn)
14) Cc1ccc(-c2cc(C(=O)N3CCN(C4CCS(=O)(=O)C4)CC3)c3ccccc3n2)cc1 (stereo not drawn)
15) O=C1c2ccccc2/C(=C\c2ccc3[nH]ccc3c2)N1c1ccccc1
16) Cc1ccc(CNC(=O)COC(=O)c2cccc(S(=O)(=O)N3CCCCC3)c2)cc1
17) CC(C)(C)NC(=O)C(c1ccc(-c2ccccc2)cc1)N(C[C@H]1CC[C@@H]([C@@H]2CC[C@H](CO)O2)O1)C(=O)c1ccc2ccccc2c1 (stereo partly drawn)
18) CC(=O)c1c(C)[nH]c(C(=O)OCC(=O)c2c(N)n(CC(C)C)c(=O)n(C)c2=O)c1C

Screen / compound no.,13,14,15,16,17,18
RE007 growth inh,10%,-14%,-26%,-1%,-6%,4%
SARS PLpro yeast,-4%,-4%,2%,0%,-1%,-8%
2A StopGo,7%,32%[activator],24%,-16%,0%,?

19) CC(C)CCN(C(=O)c1ccc(Br)cc1)c1c(N)n(Cc2ccccc2)c(=O)[nH]c1=O
20) CN(CC(=O)OCC(=O)NCc1ccccc1)S(=O)(=O)c1ccc(F)cc1
21) COc1ccc2nc(NC(=O)CS(=O)(=O)Cc3ccccc3)sc2c1
22) COC(=O)C1=C(C)N(Cc2ccccc2)C(=NCC(C)C)N[C@H]1c1cccc(C(F)(F)F)c1
23) CCCn1c(SCC(=O)Nc2ccc(Cl)cc2F)nc(O)cc1=O
24) CCN(CC)S(=O)(=O)c1ccc2[nH]c(=O)cc(C(=O)Nc3cccc(C(C)=O)c3)c2c1

Screen / compound no.,19,20,21,22,23,24
RE007 growth inh,-6%,-3%,7%,-4%,-1%,-10%
SARS PLpro yeast,-20%,1%,2%,3%,3%,1%
2A StopGo,-2%,-8%,19%,?,-21%,-7%

25) CN(Cc1ccccc1)C(=O)COC(=O)CCN1C(=O)C2CC=CCC2C1=O (stereo not drawn)
26) O=C(CN1C(=O)NC2(CCCCC2)C1=O)NNC(=O)C1CC1
27) Cc1ccnc2nc(C(=O)OCC(=O)Nc3ccccc3C(C)(C)C)nn12
28) O=C(NCc1ccc(Cl)cc1)c1ccc(S(=O)(=O)N2CCCCC2)cc1
29) Cc1ccc(NC(=O)COC(=O)CCc2ccc(S(=O)(=O)N3CCOCC3)cc2)c(C)c1
30) CCCNC(=O)c1ccc(N2CCC3(CC2)CC(c2cccc(Br)c2)=NO3)c(NC(=O)c2c(Cl)cccc2Cl)c1

Screen / compound no.,25,26,27,28,29,30
RE007 growth inh,9%,29%,9%,2%,-5%,-6%
SARS PLpro yeast,-5%,0%,2%,-6%,1%,-3%
2A StopGo,-17%,0%,14%,-22%,-4%,-9%

31) NS(=O)(=O)c1ccc(CCNS(=O)(=O)c2ccc(Cl)s2)cc1
32) C[C@H]1CN([C@@H](C)CO)C(=O)c2cc(NC(=O)NC3CCCCC3)ccc2O[C@H]1CN(C)C(=O)Nc1ccc(C(F)(F)F)cc1
33) COc1ccc(NC(=S)N(CCCN2CCOCC2)C(C)c2cc3ccccc3o2)cc1 (stereo not drawn)
34) CC(C)(C)OC(=O)[C@H](CCCCN)NC(=O)c1[nH]cnc1C(=O)N[C@@H](Cc1ccccc1)C(=O)OCc1ccccc1
35) COc1cc([N+](=O)[O-])cc2cc(C(=O)N3CCN=C3c3ccccc3)c(=O)oc12
36) C[C@H](OC(=O)N1CCN(C(c2ccccc2)c2ccccc2)CC1)[C@@H]1O[C@@]2(C)CCC[C@H]1O2

Screen / compound no.,31,32,33,34,35,36
RE007 growth inh,4%,13%,-6%,-5%,-8%,5%
SARS PLpro yeast,-3%,2%,1%,-1%,0%,-1%
2A StopGo,9%,0%,15%,-26%,-9%,?

37) COC(=O)[C@@]12CCCCN1[C@H](c1ccc(-c3ccccc3)cc1)[C@H]1C(=O)N(C)C(=O)[C@H]12
38) Cc1[nH]nc(SCC(=O)N2CCCC2)c1[N+](=O)[O-]
39) Cc1ccc(OCC(=O)Nc2ccc(Cl)cc2)c([N+](=O)[O-])n1
40) Cc1cccc(C(=O)NCC(=O)N2CC=C(c3ccccc3)CC2)c1
41) Cc1cc2nc(-c3cccnc3SCC(=O)NC(C)C)[nH]c2cc1C
42) O=C(Cn1c(CO)nc2ccccc21)Nc1ccc2c(c1)OCCCO2

Screen / compound no.,37,38,39,40,41,42
RE007 growth inh,5%,-4%,2%,1%,-9%,2%
SARS PLpro yeast,-4%,4%,3%,-9%,1%,-8%
2A StopGo,-3%,20%,63%[activator],1%,54%[activator],-30%

43) C[C@H]1COC(=O)[C@H](Cc2ccc(F)cc2)C/C=C\C[C@H](CC(=O)NCCO)C(=O)N1
44) Cc1ccc(NC(=O)c2nc3nccc(C)n3n2)cc1S(=O)(=O)N1CCCCC1
45) O=C(O)c1ccn(CSc2cc(Cl)ccc2Cl)n1
46) O=C(COC(=O)Cc1ccc(Cl)cc1)NCCc1ccccc1
47) Nc1c(Cl)cc(-c2cn(CCC(=O)O)c(-c3ccncc3)n2)cc1Cl
48) O=C(Nc1ccc(C(=O)O)cc1)/C(=C\c1ccc2c(c1)OCO2)NC(=O)c1ccco1

Screen / compound no.,43,44,45,46,47,48
RE007 growth inh,-2%,4%,10%,?,-3%,-8%
SARS PLpro yeast,-6%,0%,3%,-1%,-1%,0%
2A StopGo,-13%,35%[activator],-5%,-17%,-10%,-12%

49) CC(OC(=O)c1cc(=O)c2ccccc2o1)C(=O)Nc1ccc(N(C)C)cc1 (stereo not drawn)
50) COC(=O)/C=C1\S/C(=N/N=C/c2ccco2)NC1=O
51) O=C(CSc1ccccc1F)NNC(=O)c1ccncc1
52) N#Cc1cccc(NCC(=O)Nc2cccc(S(=O)(=O)N3CCCCC3)c2)c1
53) COc1ccccc1CNC(=O)COC(=O)Cc1cccc(F)c1
54) CN1CCN(C(=O)C2CCN(S(=O)(=O)c3ccccc3[N+](=O)[O-])CC2)CC1

Screen / compound no.,49,50,51,52,53,54
RE007 growth inh,5%,1%,-4%,9%,-6%,13%
SARS PLpro yeast,-6%,-1%,-7%,3%,3%,1%
2A StopGo,5%,-4%,2%,12%,-11%,-10%

Shown with bars between the fields: 4 of the compounds above
# | SMILES | RE007 growth inh | SARS PLpro yeast | 2A StopGo
41 | Cc1cc2nc(-c3cccnc3SCC(=O)NC(C)C)[nH]c2cc1C | -9% | 1% | 54%[activator]
42 | O=C(Cn1c(CO)nc2ccccc21)Nc1ccc2c(c1)OCCCO2 | 2% | -8% | -30%
43 | C[C@H]1COC(=O)[C@H](Cc2ccc(F)cc2)C/C=C\C[C@H](CC(=O)NCCO)C(=O)N1 | -2% | -6% | -13%
44 | Cc1ccc(NC(=O)c2nc3nccc(C)n3n2)cc1S(=O)(=O)N1CCCCC1 | 4% | 0% | 35%[activator]

Next section
55) COc1ccc(NC(=O)c2[nH]ncc2[N+](=O)[O-])cc1
56) CCOC(=O)C1=C(COC(=O)CC(C)c2ccccc2)NC(=O)NC1C (stereo not drawn)
57) COc1ccc(N/C=C2/Sc3ccccc3NC2=O)cc1
58) O=C(CN1CSCC1=O)N1CCN(S(=O)(=O)c2cccc(F)c2)CC1
59) O=C(N[C@@H]1C/C=C\C[C@H](CC(=O)N(CCO)Cc2ccccc2)C(=O)N[C@@H](Cc2ccccc2)COC1=O)OCC1c2ccccc2-c2ccccc21
60) NCCN1CCN2C(=O)CN(C(=O)c3ccccc3)CC12 (stereo not drawn)

Screen / compound no.,55,56,57,58,59,60
RE007 growth inh,4%,-5%,-5%,-5%,5%,0%
SARS PLpro yeast,-3%,0%,0%,-16%,-2%,8%
2A StopGo,29%,-14%,52%[activator],-17%,-11%,2%

61) COc1ccc(NC(=O)c2cc(C3CC3)nc3c2cnn3C(C)C)cc1OC
62) c1ccc2c(c1)[nH]c1ccncc12
63) COc1cc(OC)cc(-c2c(-c3cccs3)c3cc(-c4ccc5c(c4)OCO5)ccc3n2C)c1
64) OCC1(CO)COC(c2ccccc2)=N1
65) C[C@@]12C(=O)Nc3cc(F)ccc3C(=O)N1[C@H]1c3ccccc3OC[C@@H]1[C@@H]2c1ccccc1
66) CC1Nc2ncnc(N3CCN(c4ccccn4)CC3)c2N(Cc2ccccc2)C1=O (stereo not drawn)

Screen / compound no.,61,62,63,64,65,66
RE007 growth inh,-2%,3%,5%,15%,4%,-23%
SARS PLpro yeast,-3%,-4%,1%,2%,-4%,-4%
2A StopGo,-19%,-10%,-11%,-13%,-23%,-2%

67) O=C(O)c1cc(S(=O)(=O)Nc2ccc3cn[nH]c3c2)ccc1Cl
68) COC(=O)[C@@]1(Cc2ccccc2)[C@H]2C(=O)N(C)C(=O)[C@H]2[C@H]2CN=C(SCc3ccccc3)N21
69) O=C(OCc1nnc(-c2ccccc2)o1)c1ccc([N+](=O)[O-])s1
70) COc1ccc(NC(=O)Cc2ccccc2F)cc1S(=O)(=O)N1CCCCC1
71) C[C@@H]1CN([C@@H](C)CO)C(=O)c2cc(N(C)C)ccc2O[C@@H]1CN(C)S(C)(=O)=O

Screen / compound no.,67,68,69,70,71
RE007 growth inh,-24%,-8%,-52%,-14%,-2%
SARS PLpro yeast,12%,18%,0%,-5%,2%
2A StopGo,-4%,-15%,0%,21%,0%

Results in sequence from the list.
Compounds 68 to 71 in RE007 growth inh: -8%, -52%, -14%, -2%
Compounds 68 to 71 in SARS PLpro yeast: 18%, 0%, -5%, 2%
Compounds 68 to 71 in 2A StopGo: -15%, 0%, 21%, 0%

Some of the compounds tested; rates above refer to the full screens.
